CSC inhib: blocks cancer stem cells. cancer stem cell-like cells viability, luminescence. inhibition, % at 7.5 µM. 300,000 tested, 1.1% active;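 active means mean at 75% or more and at least half the replicates too; tested in HMLE shEcad cells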;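 further: 0% = median of negative and 100% = median of positive control wells; the first replicate is given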
MT1-MMP act inh: MT1-MMP (human) activation inhibition; P50281; HT1080 RFP-PRO-GFP cells, GFP/RFP ratio fluorescence, overnight; percent of plate control window, DMSO zero; GFP/RFP ratio change, % at 20 µM; 360,000 tested, 0.061% active; AID 651647;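 active means GFP/RFP ratio change of at least 30% with cell ATP level not reduced by more than half and red fluorescence within 50% of control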; further: strong numbers were not always called active
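Assay system: HT1080 cells carrying an RFP-PRO-GFP reporter | Dosing: Single dose of 20 µM compound, 1% DMSO final | Incubation: Cells overnight before dosing, compound overnight, 37 °C, 5% CO2 | Evaluation: GFP/RFP fluorescence ratio | Control set: DMSO and RFP-L50D-GFP cell wells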
eIF4H FP inh: inhibitors of RNA binding by human eIF4H | Q15056 | eIF4H fluorescence polarization binding assay | inhibition, % at 35 µM | 290,000 tested, 0.94% active;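 active means 50% or more with normal probe brightness, or confirmed in later tests; about a fifth of its hits are not listed in these tables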;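 further: calls also rest on retests at 20 µM and on dose response follow-up; 0% = protein and probe with vehicle and 100% = probe without protein; strong numbers were not always called active; many hits fall short of the cut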
Rce1 inh: yeast Ras-converting enzyme inhibition; yeast membranes, quenched prenylated peptide cleavage fluorescence; calls only; 290,000 tested, 0.27% active; AID 2563;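 active means fall in fluorescence gain of 50% or more versus controls, with final raw signal at or below 3038400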;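 further: plate controls were neutral control wells for no effect and wells lacking membranes for full effect; tested at 10 µM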
HIV Env fusion: blocks HIV Env-driven cell-cell fusion | HeLa-JRFL Env/CEM21 cell fusion, luciferase | AID 651610 | inhibition, % at 12.3 µM | 360,000 tested, 1.1% active;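 active means mean replicate inhibition score of at least 50 and every replicate individually at or above 50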;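 further: 0% = plate neutral controls and 100% = maraviroc near 300 nM; one replicate is shown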
UUG fidelity: modulators of start codon recognition fidelity in yeast. activity score, % at 18.7 µM. AID 602363. S. cerevisiae UUG-firefly luciferase reporter, luminescence/redox ratio. 350,000 tested, 0.13% active;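 active means replicate mean at a twofold rise or more, about +100% in these data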;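 further: firefly luciferase made from a UUG start codon reports start codon fidelity; reporter light over untreated wells divided by growth signal over untreated wells; some hits fall short of that in this replicate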
PABP polyA inh: PABP-poly(A) binding inhibition; PABP-poly(A) RNA binding, fluorescence polarization; inhibition, % at 35 µM; 290,000 tested, 1% active; P11940; AID 2014;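 active means 50% or more with normal probe brightness, or confirmed in later tests; about a fifth of its hits are not listed in these tables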;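 further: calls also rest on retests at 20 µM and on dose response follow-up; controls were probe without protein and protein plus probe with vehicle; some compounds called inactive have numbers as strong as hits; many hits fall short of the cut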
MT1-MMP act inh RFP: recorded beside MT1-MMP act inh, whose call it bears; RFP signal change, %; measured here: RFP expression control read;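 0 = vehicle wells; hits needed this value within 50% of zero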
The depositor's hits bear a star; i = inactive; x = not tested or not shown. Rows are unselected, and some 3% of all compounds hit somewhere here.

SMILES	CSC inhib	MT1-MMP act inh	MT1-MMP act inh RFP	eIF4H FP inh	Rce1 inh	HIV Env fusion	UUG fidelity	PABP polyA inh
COc1ccc(C(=O)n2nc(-c3ccc(C)cc3)nc2N)cc1OC	14	3	-2	-7	i	11	-17	17
O=C(c1ccc(F)cc1)N1CCCC(c2nc(-c3cccs3)no2)C1 (stereo not drawn)	-2	2	-5	-4	i	16	x	-3
CCOc1ncccc1C(=O)OCC(=O)Nc1cccc(S(=O)(=O)N2CCCCCC2)c1	-8	6	-4	x	x	x	-3	x
CCN(CC)CCN1C(=O)C(=O)/C(=C(/O)c2ccc(S(=O)(=O)N3CCOCC3)cc2)C1c1ccc(C(C)C)cc1 (stereo not drawn)	-4	-3	-2	-3	i	-1	-1	-5
Cc1cccc(NC(=S)N(CCCN2CCOCC2)Cc2ccccn2)c1	-2	2	-1	-1	i	9	-25	3
COc1ccc(-c2coc3c(C(=O)Nc4cccc(C(C)=O)c4)cccc23)c(C)c1	x	0	-10	x	x	7	8	x
O=C(CN1CCOCC1)Nc1ncc(Br)cc1Br	-2	-3	-1	3	i	x	-8	7
CCCC(C(=O)NCC1CCCO1)N(C(=O)CNS(=O)(=O)c1ccccc1)c1ccc(F)cc1 (stereo not drawn)	-11	2	5	-8	i	42	-17	4
O=C(CSc1nc(N2CCOCC2)nc(N2CCOCC2)n1)Nc1cccc(C(F)(F)F)c1	-5	0	0	-4	i	18	9	-4
O=C1[C@H]2C(c3ccccc3)=NN(c3ccccc3)[C@H]2C(=O)N1c1ccccc1	-13	-1	-2	10	i	-5	x	1
COc1cccc(CNC(=O)CCNS(=O)(=O)c2ccc3[nH]c(=O)oc3c2)c1	x	-4	-1	20	i	x	-20	18
C=CCN1C(=O)C2(NNc3ccccc3O2)c2ccccc21 (stereo not drawn)	-30	-15	12	101*	i	x	x	125*

The last 2 entries of the section before open the next one:
SMILES	CSC inhib	MT1-MMP act inh	MT1-MMP act inh RFP	eIF4H FP inh	Rce1 inh	HIV Env fusion	UUG fidelity	PABP polyA inh
COc1cccc(CNC(=O)CCNS(=O)(=O)c2ccc3[nH]c(=O)oc3c2)c1	x	-4	-1	20	i	x	-20	18
C=CCN1C(=O)C2(NNc3ccccc3O2)c2ccccc21 (stereo not drawn)	-30	-15	12	101*	i	x	x	125*
CCOC(=O)C1CCN(S(=O)(=O)c2ccc3c(c2)CC(C)N3C(=O)C2CC2)CC1 (stereo not drawn)	5	3	-11	x	i	1	-10	x
CCC(CC)c1nnc(NC(=O)COc2ccc3c(C)cc(=O)oc3c2)s1	-5	19	-14	-2	i	-7	-2	-7
C=COCCNC(=O)C1CC(=O)N(c2ccc(C)cc2)C1 (stereo not drawn)	-7	2	6	-9	i	-94	-4	-4
O=C(C1COc2ccccc2O1)N1CCN(c2ccc([N+](=O)[O-])cc2)CC1 (stereo not drawn)	-7	5	-9	x	x	x	-10	x

Filtered by structure: those above containing nitrogen in an aromatic ring
SMILES	CSC inhib	MT1-MMP act inh	MT1-MMP act inh RFP	eIF4H FP inh	Rce1 inh	HIV Env fusion	UUG fidelity	PABP polyA inh
COc1ccc(C(=O)n2nc(-c3ccc(C)cc3)nc2N)cc1OC	14	3	-2	-7	i	11	-17	17
O=C(c1ccc(F)cc1)N1CCCC(c2nc(-c3cccs3)no2)C1 (stereo not drawn)	-2	2	-5	-4	i	16	x	-3
CCOc1ncccc1C(=O)OCC(=O)Nc1cccc(S(=O)(=O)N2CCCCCC2)c1	-8	6	-4	x	x	x	-3	x
Cc1cccc(NC(=S)N(CCCN2CCOCC2)Cc2ccccn2)c1	-2	2	-1	-1	i	9	-25	3
O=C(CN1CCOCC1)Nc1ncc(Br)cc1Br	-2	-3	-1	3	i	x	-8	7
O=C(CSc1nc(N2CCOCC2)nc(N2CCOCC2)n1)Nc1cccc(C(F)(F)F)c1	-5	0	0	-4	i	18	9	-4
COc1cccc(CNC(=O)CCNS(=O)(=O)c2ccc3[nH]c(=O)oc3c2)c1	x	-4	-1	20	i	x	-20	18
CCC(CC)c1nnc(NC(=O)COc2ccc3c(C)cc(=O)oc3c2)s1	-5	19	-14	-2	i	-7	-2	-7

Compound activity as filed in PubChem.
